Source: PubChem (National Center for Advancing Translational Sciences (NCATS))
2A Renilla: FMDV 2A StopGo reporter, Renilla signal; HEK cells with a luciferase reporter of 2A StopGo recoding; Potency, µM (series often up to 57.5 µM), for inactives: top-dose signal change, negative = less light; actives 0.32% (n = 120,000); AID 1745857; active means well fitted falling curve with a large enough effect; inconclusive means small, poorly fitted or top-dose-only effect; inactive means no such curve, though single readings can be large or run the other way; further: nearly all actives have a fitted effect of over 55% in size; overnight with compound
2A firefly: lowers the firefly signal of an FMDV 2A StopGo reporter; actives 0.23% (n = 120,000); Potency, µM (top dose mostly 57.5 µM), for the others: at the top dose signal change, negative = less light; HEK cells with a luciferase reporter of 2A StopGo recoding; AID 1745856; active = well fitted falling curve with a large enough effect; inconclusive = small, poorly fitted or top-dose-only effect; inactive = no such curve, though single readings can be large or run the other way; further: nearly all actives have a fitted effect of over 60% in size; overnight with compound
* marks the source's active call; other numbers are inactive results; u = inconclusive; & = joins results of further samples; [ ] = another dose, or the depositor's remark. On the % scale 0 is the no-effect control and ±100 the full control effect; potency means the concentration at half of the fitted maximal effect.

SMILES | 2A Renilla | 2A firefly
Cn1c(=O)c2c(nc(Cl)n2Cc2ccc(C#N)cc2)n(C)c1=O | 24% | 8%
COc1ccc(C(NC(=O)c2sc(-c3ccsc3)nc2C)c2nccn2C)cc1 (stereo not given) | 33%[activator] | 0%
O=C(Nc1ccc(Cl)c(-c2nc3cnccc3o2)c1)c1cc2ccccc2o1 | 7% | 9%
COC(=O)C1=C(C(=O)c2ccc(C)cc2)C(c2cccc(F)c2)n2nnnc2N1 (stereo not given) | 35%[activator] | 0%
Cc1ccc2oc(C(=O)N(C)CCOc3ccc(F)cc3)cc(=O)c2c1 | 12% | 8%
O=C(CCCc1nc(-c2ccco2)no1)Nc1ccccc1[N+](=O)[O-] | -10% | 35%
CCN(CC)S(=O)(=O)c1ccc(Cl)c(NC(=O)CSc2nnc(C3CC3)n2C2CC2)c1 | 25% | 9%
CCc1ccc(C(=O)NCc2ccc(N3CCN(C)CC3)nc2)s1 | -11% | 0%
Cc1cc(=O)oc2cc(OCC(=O)NCCc3ccc(F)cc3)ccc12 | -7% | 8%
Cc1c(-c2ccccc2)oc2c(C(=O)OC(C)C(=O)Nc3ccccc3)cccc2c1=O (stereo not given) | 116%[activator] | -2%
CCCCNC(=O)c1cc(-c2ccc(OCC)cc2)nc2ccccc12 | -2% | 35%[activator]
CCOc1ccccc1NC(=O)c1cnc2ccccc2n1 | 2% | 0%
CCCCN(CCCC)CCNC(=O)c1cc(-c2cccnc2)nc2ccc(S(=O)(=O)N3CCC(C)CC3)cc12 | -4% | -17%
Cc1ccc(C)c(CS(=O)(=O)Cc2nc(C)no2)c1 | 4% | 2%
CCC(Sc1nnc2c(=O)n(-c3ccc(C)c(C)c3)ccn12)C(=O)Nc1c(C)cccc1C (stereo not given) | -13% | -14%
Cc1ccc2[nH]cc(CCNC(=O)/C=C/c3ccccc3C)c2c1 | -3% | 0%
O=C(Cc1cccs1)NC1CC(=O)N(c2ccccc2)C1 (stereo not given) | -11% | -11%
CCOc1ccccc1NC(=O)C1CCCN(S(=O)(=O)c2ccc3c(c2)CCCN3C(C)=O)C1 (stereo not given) | 99%[activator] | -19%
O=C(CSC1=NC2(CCCCC2)N=C1c1cccs1)NCc1ccc(Cl)cc1 | 54%[activator] | -18%
O=S(=O)(c1ccc(F)cc1)N(Cc1cccnc1)C1CC1 | -5% | -3%
O=C(CCc1ncc(-c2ccc(F)cc2F)o1)N1CCN(S(=O)(=O)c2cccc(Cl)c2)CC1 | -29% | -7%
CC(C)(C)C(=O)CSc1nnc(COc2ccc(Cl)cc2)n1-c1ccc(Cl)cc1 | 7% | 0%
COc1cccc(-c2nc(-c3cc4ccccc4o3)cs2)c1OC | -6%[1.06 µM] | 209%[activator]
Cc1ccc(C)c(NC(=O)CC(C)(C)CC(=O)O)c1 | -11% | 17%
Cc1ccsc1CNC(=O)c1scnc1C | 17% | 41%[activator]

Part of the list above, tab-delimited:
Molecule	2A Renilla	2A firefly
O=C(CSC1=NC2(CCCCC2)N=C1c1cccs1)NCc1ccc(Cl)cc1	54%[activator]	-18%
O=S(=O)(c1ccc(F)cc1)N(Cc1cccnc1)C1CC1	-5%	-3%

Next part
SMILES | 2A Renilla | 2A firefly
N#Cc1nc(-c2ccc([N+](=O)[O-])cc2)oc1NC1CCCCC1 | -4% | 3%
COc1ccc(-c2cc(-c3ccc(C)cc3)nc3c2COc2ccccc2-3)cc1 | -11% | -5%
Cc1ccc2nc(-c3ccc(O)cc3)c(Nc3ccc(Cl)cc3)n2c1 | 2% | 27%
Fc1ccc(CNC(=S)NCCc2ccccc2)cc1 | 202%[activator] | 107%[activator]
COc1cccc(NC(=O)C(=O)NCCc2sc(-c3cccc(C)c3)nc2C)c1 | 8% | 339%[activator]
COc1ccc(-c2noc(-c3cc(-c4ccc(F)cc4)n[nH]3)n2)cc1 | 0%&4% | 16%&4%
Cc1ccc(NC(=O)C(=O)NCC(c2ccc3c(c2)OCO3)N2CCN(C)CC2)c(C)c1 (stereo not given) | -6% | -15%
CCNC(=O)c1c2c(nc3ccccc13)C(=O)N(C1CCCCC1)C2 | -14% | -16%
O=c1[nH]c2sc3c(c2c2nc(-c4ccncc4)nn12)CCCC3 | 68%[activator] | 32%[activator]
CC(=O)c1cccc(C(C)=O)n1 | 4% | 5%
CSc1ccc(/C=N/Nc2c(Cl)cc(Cl)cc2Cl)cc1 | 11% | 131%[activator]
COc1ccccc1C1Nc2c(sc3nc(C)cc(C)c23)C(=O)N1c1ccccc1 (stereo not given) | 1% | 108%[activator]
O=C(CCn1cnc2ccccc2c1=O)NCc1ccccc1 | -3% | 1%
O=C(O)C/C(=C/c1cccnc1)c1nc2ccccc2s1 | 0% | 23%
COc1ccc(CNC(=O)c2cc3sccc3n2Cc2ccc(F)cc2)cc1 | -6% | 20%
CC1C/C(=N\O)C(C)CN1 (stereo not given) | 11% | 1%
CCOc1ccc(/C=N/N=C/c2ccc(OCC)cc2)cc1 | 2% | 6%
Cc1cc(NC(=O)CCc2ncc(-c3ccccc3Cl)o2)no1 | -7% | 9%
COCCNC(=O)CCCn1c(SCc2ccccc2Cl)nc2c(sc3ccccc32)c1=O | -2% | -12%
COC(=O)COC(=O)Cn1cc(I)c(=O)c(I)c1 | 4% | 1%
CNC(=O)Cc1ccc(NC(=O)C=C(C)C)cc1 | 6% | 66%[activator]
CCc1nnc2c(NCc3ccccc3OC)nc3ccccc3n12 | 47%[activator] | 137%[activator]
CCc1ccc(-c2nc(SCC(=O)NCC3CCCO3)c(-c3ccc(F)cc3)[nH]2)cc1 (stereo not given) | 14% | -6%
COc1ccc2nc(SCC(=O)Nc3nc(C)c(C)s3)[nH]c2c1 | -9% | 0%
COc1ccccc1C(=O)Nc1ccc2oc(-c3ccc(F)cc3)cc(=O)c2c1 | -10% | 24%
Next section:
SMILES | 2A Renilla | 2A firefly
CCOc1ccc(NC(=O)/C=C/c2cccc3ccccc23)cc1 | -5% | -6%
N#Cc1c(-c2cc(Cl)ccc2Cl)csc1N | 13% | 60%[activator]
O=C(O)CCCCNS(=O)(=O)c1ccccc1 | 23% | 85%[activator]
CCCCN(Cc1cc2ccccc2[nH]c1=O)C(=O)c1cc(OC)c(OC)c(OC)c1 | 52%[activator] | 4%
CCCOc1nc2ccccc2nc1N1CCC(C(=O)Nc2cc(F)cc(F)c2)CC1 | -9% | -8%
COc1cccc(NC(=O)CN2C(=O)c3cccnc3Oc3ccc(Cl)cc32)c1 | 40%[activator] | 40%[activator]
CC(C)COc1nc2ccccc2nc1C(C#N)C(=O)NCc1ccccc1 (stereo not given) | 0% | 2%
O=C(Cc1ccc2c(c1)CCC2)Nc1cc(C(F)(F)F)ccc1Cl | 4% | -7%
COc1ccc2c3c1O[C@H]1[C@@H](O)C=C[C@H]4[C@@H](C2)N(C)CC[C@@]341 | -16%[114 µM] | -2%[22.9 µM]
Cc1nc(-c2ccccc2)sc1C(C)N (stereo not given) | 14% | 21%
CCOc1cc2c(cc1NC(=O)CCC(=O)c1ccc(C)cc1)OC(C)C2 (stereo not given) | 11% | 7%
N#Cc1nc(-c2ccc(F)cc2)oc1N1CCCCC1 | 24% | 36%[activator]
CCCCNC(=O)c1ccc(CC)s1 | 11% | 0%
Cc1ccc2c(c1)C/C(=C\c1cccnc1)C2=O | 8% | 171%[activator]
COc1cc2c(cc1OC)C(COc1ccc3c(C)cc(=O)oc3c1)N(C(=O)Cc1ccc(F)cc1)CC2 (stereo not given) | 7% | -17%
Fc1cccc(-c2nc(CSc3ncn[nH]3)co2)c1 | 0% | 133%[activator]
O=S(=O)(c1ccc(Sc2nnnn2C2CCCC2)nc1)N1CCCC1 | 4% | 3%
CCOc1ccc(NC(=O)c2cn(C3CCCCC3)c(=O)c3c2c2ccccc2n3C)cc1 | 2% | 8%
O=C(CN1CCN(Cc2ccsc2)CC1)Nc1ccccc1C(=O)NC1CCCC1 | 7% | 29%
CCCNc1nc(-c2ccc(NC(C)=O)cc2F)cs1 | 14% | 0%
Nc1nnnn1Cc1nnc(SCc2c(F)cccc2Cl)n1-c1ccccc1 | u | 14%
O=C(CCc1ccccc1)Nc1ccc(Cl)cc1C(F)(F)F | 0% | 0%
COCCN1C(=O)c2ccccc2NC1c1csc(-c2ccc(Cl)cc2)n1 (stereo not given) | 20% | 22%
C#CCN([C@H](C(=O)OC)C(C)CC)S(=O)(=O)c1ccccc1Br (stereo not given in full) | 54%[activator] | 4%
O=C(/C=C/c1cccnc1)c1cccc2ccccc12 | u | u

2 entries from above, with values under each structure:
Each structure is followed by: 2A Renilla	2A firefly
Nc1nnnn1Cc1nnc(SCc2c(F)cccc2Cl)n1-c1ccccc1
→ u	14%
COCCN1C(=O)c2ccccc2NC1c1csc(-c2ccc(Cl)cc2)n1 (stereo not given)
→ 20%	22%

Part of the list above, set out differently:
Every second line gives: 2A Renilla, 2A firefly
Cc1nc(-c2ccccc2)sc1C(C)N (stereo not given)
    14%, 21%
CCOc1cc2c(cc1NC(=O)CCC(=O)c1ccc(C)cc1)OC(C)C2 (stereo not given)
    11%, 7%
N#Cc1nc(-c2ccc(F)cc2)oc1N1CCCCC1
    24%, 36%[activator]
CCCCNC(=O)c1ccc(CC)s1
    11%, 0%
Cc1ccc2c(c1)C/C(=C\c1cccnc1)C2=O
    8%, 171%[activator]
COc1cc2c(cc1OC)C(COc1ccc3c(C)cc(=O)oc3c1)N(C(=O)Cc1ccc(F)cc1)CC2 (stereo not given)
    7%, -17%
Fc1cccc(-c2nc(CSc3ncn[nH]3)co2)c1
    0%, 133%[activator]

(cont.)
SMILES | 2A Renilla | 2A firefly
CCOC(=O)c1c(S(=O)(=O)N2CCC(C(=O)N3CCN(c4cccc(C)c4C)CC3)CC2)c(C)n(C)c1C | 44%[activator] | -12%
O=C(OCC(=O)N1CCC(Cc2ccccc2)CC1)c1cc(=O)c2ccccc2o1 | -8% | -5%
CC(C)CCN1C(=O)N(c2ccccc2)C(=O)C1CC(=O)Nc1ccc(Cl)cc1 (stereo not given) | 155%[activator] | 1%
CCOC(=O)c1cccc(NC(=O)CC2C(=O)N(c3ccc(Cl)cc3)C(=O)N2C2CCCC2)c1 (stereo not given) | -28% | u
CCCOc1ccc(NC(=O)c2ccccc2)c2cccnc12 | 4% | 19%
O=C(OCC(=O)c1c[nH]c2ccccc12)c1ccc([N+](=O)[O-])cc1Cl | 0% | 10%
COc1ccc(OC)c(CNC(=O)c2cc3c(Cl)nc4ccccc4c3s2)c1 | -7% | -14%
CCCn1nc(C(=O)Nc2cccc(Cl)c2C)c2ccccc2c1=O | -8% | -5%
CCOc1ccc(-n2cc(C(=O)Nc3ccccc3OCC)c3cc(OC)c(OC)cc3c2=O)cc1 | -8% | -16%
O=C(COc1ccccc1F)N1CCN(Cc2cc(=O)n3nc(-c4ccccc4Cl)sc3n2)CC1 | -3% | 6%
NC(=O)[C@@H]1CCCN1C(C(=O)O)c1cn(CCC(=O)O)c2cc(F)ccc12 (stereo not given in full) | -3% | -5%
CC(C)Cn1nc(C(=O)OCC(=O)Nc2ccccc2F)c2ccccc2c1=O | -12% | -9%
CCc1noc(C(C)N2CCN(c3oc(-c4ccco4)nc3C#N)CC2)n1 (stereo not given) | 16% | 3%
COC(=O)C1CN(Cc2ccc(OC)cc2)CCS(=O)(=O)N1Cc1cn(Cc2ccc(C)cc2)nn1 (stereo not given) | 30%[activator] | 24%
CCOc1ccc(C(=O)Cn2c(=O)n3nc(CCn4nc(C)cc4C)nc3c3cc(OC)c(OC)cc32)cc1 | -12% | -10%
Cc1cc(OCC(=O)Nc2sc3c(c2C(N)=O)CCCC3)ccc1C(C)C | -20% | -22%
Cc1ccccc1NC(=O)Cc1nnc(SCC(=O)c2ccc(C#N)cc2)n1C | -11% | -4%
NC1(c2ccccc2)CC1 | 3% | 3%
Cc1ccc2c(c1)N(C(=O)Cn1c(=O)n(CC(=O)N3CCCCC3)c(=O)c3sccc31)CCO2 | 1% | -4%
Cc1ccc(-c2nnc(Nc3ccc(O)cc3)c3ccccc23)cc1S(=O)(=O)NCc1nc2ccccc2[nH]1 | 50%[activator] | -3%
COc1ccc(Cl)cc1NC(=O)c1nn(-c2ccc(C)cc2)c(=O)n(C)c1=O | -9% | -10%
O=C(Nc1ccc(F)cc1)N1CCN(C(=O)c2nsc3ccccc23)CC1 | -6% | -19%
COc1ccc(CNC(=O)CC2Oc3ccc(C)cc3NC2=O)cc1 (stereo not given) | -10% | -2%
CCOc1ccccc1-c1noc(CSc2nnc(-c3ccncc3)n2-c2ccc(F)cc2)n1 | 1% | -17%
Cc1oc(-c2ccc(C(=O)Nc3ccc(F)cc3)cc2)nc1COc1ccccc1 | u | -27%
Later entries.
SMILES | 2A Renilla | 2A firefly
CC1=C(C(=O)OC(C)(C)C)C(c2cccc(F)c2)C(C#N)=C(N)O1 (stereo not given) | -7% | 15%
CCc1ccc2nc(/N=C(\N)NC(=O)c3ccccc3N)nc(C)c2c1 | -16% | 0%
COc1ccc(-c2cc(C(=O)Nc3cccnc3)no2)cc1OC | 6% | 123%[activator]
Cn1c2ccc(Br)cc2c2nnc(SCn3nnc4ccccc43)nc21 | 3% | 14%
Cc1c(C(=O)N2CCc3ccccc3C2)nnn1-c1ccc(Br)cc1 | 78%[activator] | 128%[activator]
O=C(OCc1nnnn1-c1ccccc1)C1(c2cccc(F)c2)CCCC1 | 9% | -16%
CCCN1C(C(C)=O)=C(OC(=O)CC)c2ccccc2S1(=O)=O | 36%[activator] | 31%[activator]
COc1ccc(-c2cc(C(=O)N3CCCN(C(C)=O)CC3)c3ccccc3n2)cc1 | 94%[activator] | 135%[activator]
